Screens from PubChem BioAssay.
HIV TAR-Tat: HIV-1 TAR-Tat binding disruption; z-score (no concentration beside the values); hit rate 0.6% among 100,000; HIV-1 TAR RNA, Tat peptide displacement FRET; stronger effect = higher value;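 also: score is relative to mean and SD of negative controls; some compounds called inactive have numbers as strong as hits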
CDC25B-CDK2 inh: human CDC25B-CDK2/CyclinA binding inhibition; hit rate 0.72% among 94,000; HTRF CDC25B-CDK2/CyclinA binding, anti-His/anti-Flag; stronger effect = higher value; z-score (concentration not given with the values); P30305+P24941;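 also: score is relative to mean and SD of negative controls; strong numbers were not always called active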
An asterisk follows results filed as active; / = no result given; & = joins results of further samples.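 The calls were made as follows: active = z-score from 3 up in half or more of its runs; inactive = the rest.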

Molecule | HIV TAR-Tat | CDC25B-CDK2 inh
O=C(O)c1cccc(N2COc3ccc4cc(Br)ccc4c3C2)c1 | / | -2.7
Cc1ccc(-c2c(C)c(C)nc(N)c2C#N)o1 | 1.7 | -0.2
O=C(O)c1ccc(S(=O)(=O)N2CCCC3CCCCC32)cc1 (configuration not stated) | -0.01 | -0.57
CC(=O)C1=C(O)C=C2Oc3c(C(C)=O)c(O)c(C)c(O)c3[C@]2(C)C1=O | 1.8&1 | /
CC(=O)O[C@]1(C)CC[C@@]23CC1C(C)(C)[C@@H]2CC[C@H]3C | 1.2 | /
O=C(O)Cc1ccc(OC(F)(F)F)cc1 | / | -1.9
Cc1cc(OCc2cc(=O)n3ccsc3n2)ccc1Cl | 1.4 | -0.71
CCOC(=O)c1noc2ncnc(Nc3cc(F)ccc3F)c12 | -0.21 | /
CC(=O)O[C@@H]1CC2C(C)(C)[C@@H](O)CC[C@]2(C)C2CC[C@@]3(C)[C@H](c4ccoc4)OC(=O)[C@H]4O[C@]43[C@@]21C (some centres not stated) | 2.2 | /
CC(C)c1cc(=O)n2[nH]c(NCc3cccs3)nc2n1 | 0.96 | -1.2
O=C(Nc1ccc(F)c(C(F)(F)F)c1)c1cnc2sccn2c1=O | / | -1.8
CC1(C)Cc2nc3sc4c(NC5CCCCC5)ncnc4c3cc2CO1 | / | -0.23
CCCCNc1nc2c(-c3ccccc3)nnn2c2ccccc12 | -0.29 | 0.75
C=CCOc1ccc(C2c3c(oc4ccccc4c3=O)C(=O)N2c2ccccn2)cc1OCC (configuration not stated) | 0.57 | -0.89
Cc1cc(C)cc(NS(=O)(=O)c2ccc(-c3ccc(=O)[nH]n3)o2)c1 | 1.3 | /
COc1cc(OC)cc(-c2nnc(CS(=O)(=O)c3ccccc3)o2)c1 | 0.39 | -0.62
CCOC(=O)c1cnc(SCC)nc1N | 1.4 | /
COc1ccc(NC(=S)SC)cc1OC | / | 1.4
COc1cc(OC)c(NC(=O)Nc2nnc(N3CCCCC3)s2)cc1Cl | 0.96 | -0.88
CSc1ccc(C2Oc3ccccc3C3=C2C(c2cccs2)n2ncnc2N3)cc1 (configuration not stated) | / | -3
CCN1C(C(=O)c2ccccc2)=C(OC(=O)COc2ccccc2)c2ccccc2S1(=O)=O | -0.21 | -1.6
COc1cccc(OCc2ccccc2)c1C#N | / | -0.04
C=CCSc1ncnc2c1cnn2-c1ccccc1 | / | -0.32
CCCCc1ccc(NC(=O)Cn2nc3nc(C)cc(C)n3c2=O)cc1 | -0.56 | /
Cc1cccc(-c2nc3nc(C)cc(NCCO)n3n2)c1 | 0.99 | 0.09
CCNc1[nH]c(=S)nc2c1cnn2-c1ccccc1 | / | 0.52
CCOc1ccc(N(C)S(=O)(=O)c2cn(C)cn2)cc1 | 2.1 | /
CC1CC(=O)c2cnc(N3CCCCC3)nc2C1 (configuration not stated) | -0.01 | -1.1
Cc1cc(C)cc(NS(=O)(=O)c2cn(C)cn2)c1 | 1.4 | /
O=S(=O)(NCc1ccccc1)c1ccc(-c2cnc(C3CC3)o2)cc1 | 0.12 | /

One compound at a time, from the list above.
COc1cc(OC)c(NC(=O)Nc2nnc(N3CCCCC3)s2)cc1Cl across the screens: HIV TAR-Tat: 0.96; CDC25B-CDK2 inh: -0.88
CC(=O)O[C@@H]1CC2C(C)(C)[C@@H](O)CC[C@]2(C)C2CC[C@@]3(C)[C@H](c4ccoc4)OC(=O)[C@H]4O[C@]43[C@@]21C (some centres not stated) across the screens: HIV TAR-Tat: 2.2; CDC25B-CDK2 inh: /
CC(=O)C1=C(O)C=C2Oc3c(C(C)=O)c(O)c(C)c(O)c3[C@]2(C)C1=O across the screens: HIV TAR-Tat: 1.8&1; CDC25B-CDK2 inh: /

(listing goes on)
Molecule | HIV TAR-Tat | CDC25B-CDK2 inh
O=C(O)c1nccnc1C(=O)NCc1c(Cl)cccc1Oc1ccccc1 | / | -1.4
Cc1cccc(N2CCN(c3nn4nnnc4c4ccccc34)CC2C)c1 (configuration not stated) | 0.48 | /
CCOC(=O)c1c(C)oc2nc(C)nc(N3CCN(c4ccc(OC)cc4)CC3)c12 | -0.15 | /
COc1ccc(Nc2c(-c3ccc(C)o3)nc3cc(C)ccn23)cc1 | / | -0.39
CC1=C(c2ccc(F)cc2)S(=O)(=O)N=C1Nc1ccccn1 | -1.9 | /
COCCOC(=O)c1c(C)oc2cc(Br)c(OCc3ccc(F)cc3)cc12 | 0.42 | 1.6
Cc1cc(N2CCOCC2)nc(N2CCC(C(=O)O)CC2)n1 | -0.69 | -1.7
CCCc1cc(=O)n2nc(N(C)CC(=O)NCCC(C)C)sc2n1 | 3.6 | -0.69
O=C(CN1C(=O)c2cccnc2Sc2ccccc21)NCCc1cnc[nH]1 | 1.2 | 0.4
CCCc1cc(=O)[nH]c(Nc2ccc(Br)cc2)n1 | 0.38 | -1.4
COC(=O)c1ccc(C(=O)OC)c(Nc2cc(C)nc(SC)n2)c1 | 1.2 | 2
CCCCc1nn2c(=O)cc(CSc3ccccc3NC(=O)c3ccco3)nc2s1 | 0.87 | /
CCc1nnc(NC(=O)c2noc3c2CCc2sccc2-3)s1 | -0.27 | /
CCOc1ccccc1-n1nnc(-c2nc(-c3ccccc3C)no2)c1N | -0.43 | /
COc1ccc(NC(=O)C2CC(C)=C(C)CC2C(=O)O)c(N2CCOCC2)n1 (configuration not stated) | / | -0.82
CCc1nn2c(=O)cc(CSc3n[nH]c(C)n3)nc2s1 | -0.38 | /
CCn1c(CCn2ccnc2C)n[nH]c1=S | / | -0.66
CCN1C(=O)c2cccc3c(S(=O)(=O)NC(C(=O)O)C(C)C)ccc1c23 (configuration not stated) | 1.2 | -0.09
C=CCNC(=O)C1=Cc2cc(Br)ccc2OC=C1 | -0.07 | -2
O=S1(=O)C[C@H](NCc2ccccc2Cl)[C@@H](S(=O)(=O)c2ccc(F)cc2)C1 | -0.49 | -2
COc1ccc(C2C(C(=O)OC(C)C)=C(C)NC3=C2C(=O)CC(C)(C)C3)cc1OC (configuration not stated) | 1.2 | -0.37
CCN1CCN(c2ncnc3scc(-c4ccc(OC)cc4)c23)CC1 | / | 0.66
O=[N+]([O-])c1cc(/C=N/Nc2ccc(Br)c(Cl)c2)cs1 | / | -1.9
Cc1cc(=O)n2[nH]c(-c3cccnc3)nc2n1 | 0.87 | -0.34
Fc1ccc(-c2nnc3ccc(N4CCN(c5ccccc5)CC4)nn23)cc1 | -0.18 | -2.2
O=C(COc1ccccc1Cl)Nc1nc2c(s1)CCCC2 | 0.71 | 1.1
Cc1cc(C2CCCN2S(=O)(=O)c2cccc3nsnc23)on1 (configuration not stated) | 1.9 | /
O=C(Cn1cnc2c(nnn2-c2cccc(Cl)c2)c1=O)Nc1ccc2c(c1)OCO2 | -0.28 | 0.48
CN1C(=O)C(C)(C)c2cc(S(=O)(=O)N3CCCC(C(=O)NC4CCCc5ccccc54)C3)ccc21 (configuration not stated) | 0.47 | /
COc1ccc(N2C(=O)C3CCC(C)CC3C2=O)cc1 (configuration not stated) | / | -1.5

Molecule | HIV TAR-Tat | CDC25B-CDK2 inh
CCCCNc1nc(Nc2ccc(Cl)cc2)c2cnn(C)c2n1 | 0.23 | /
Cc1ccc(NC(=O)N2CCn3c(C)ccc3C2C(C)C)c(Cl)c1 (configuration not stated) | 0.41 | /
Cc1nn(-c2ccc(F)cc2)cc1-c1noc(C(=O)NC2CCCC2)n1 | 0.41 | /
CC1SC2(C(=O)Nc3ccccc32)N(c2ccc(Cl)cc2)C1=O (configuration not stated) | / | 0.27
COc1ccc(-c2cc(=O)c3c(OC)c(OC)c(OC)c(OC)c3o2)cc1OC | 1.1 | /
O=C(NCCN1CCOCC1)C1CCN(c2ccc(-c3cccs3)nn2)CC1 | -0.68 | /
O=C(NC1CCCCC1)C1CCN(C(=O)c2ccc(-n3ccc4ccccc43)s2)CC1 | 1.7 | /
O=C(CCc1nc(-c2ccccn2)no1)N1CCN(c2ccccc2F)CC1 | 2.1 | 1.7
O=C(NCc1ccccc1Cl)c1cnc2sc(N3CCCC3)nn2c1=O | -0.75 | /
O=C(Oc1ccc2c3c(c(=O)oc2c1)CCC3)c1ccco1 | / | -0.27
CCOc1ccc(Nc2c(S(=O)(=O)c3ccc(OC)cc3)cnc3cc(OC)c(OC)cc23)cc1 | 0.97 | 2.5
Cc1cc(C(F)F)n2ncc(C(=O)O)c2n1 | 2.3 | -2.1
CC(C)N(C)Cc1cccc(-c2ccc3c(c2)CN2CCC(O)C2=N3)c1 (configuration not stated) | 1.7 | /
O=C(CSc1nnc(CCCN2C(=O)c3cccc4cccc(c34)C2=O)n1-c1ccccc1)NCc1ccccn1 | / | -3.8
CCOc1ccc(S(=O)(=O)c2c(C(=O)c3ccc(OC)cc3)cnc3ccc(OC)cc23)cc1 | -0.66 | -3.2
CCOC(=O)Cn1c(C2CC(=O)N(c3c(C)cc(C)cc3C)C2)nc2ccccc21 (configuration not stated) | -0.87 | -0.83
Cc1cc(-c2ccc(C)c(S(=O)(=O)Nc3ccc(F)c(Cl)c3)c2)on1 | 1.3 | /
Cc1nc2c(c(SCC(=O)Nc3ccccc3F)n1)CCC2 | 0.45 | -1.2
Cc1nnc2c(N3CCN(c4ccc(F)cc4)CC3)nc3ccccc3n12 | 1.5 | -0.59
CC(=O)N1c2ccc(S(=O)(=O)N3CCCCC3)cc2CC1C(=O)NC1CCCCC1 (configuration not stated) | -0.14 | /
CCOC(=O)N1CCN(C(=O)c2sc3nc(C)cc(C)c3c2-n2cccc2)CC1 | -0.22 | -0.36
CC1CN2C(=O)Cc3c(S(=O)(=O)N4CCN(Cc5ccccc5)CC4)ccc(c32)S1 (configuration not stated) | -0.31 | /
Nc1nnc(Cc2ccc(Cl)cc2)s1 | / | -2.2
Cc1ccc(OCCOC(=O)c2sc(=S)n(C)c2C)cc1 | 2.7 | -22
N#Cc1c(N)nc2[nH]c(=S)[nH]c(=O)c2c1-c1ccc([N+](=O)[O-])cc1 | / | -0.97
O=C(CSc1nc2c(c(=O)n1Cc1ccccc1)SCC2)N1CCOCC1 | 0.12 | /
Fc1ccccc1N1CCN(c2ncnc3c2cnn3-c2ccccc2)CC1 | 1.3 | /
O=C(Nc1ccccc1)N1CCc2cc3ccccc3nc21 | -0.04 | -0.42
C=CCSc1nnc(NC(=O)c2nn(-c3ccc(OCC)cc3)ccc2=O)s1 | -0.2 | -1.2
Cc1c(C(=O)c2ccccc2C(=O)O)sc2ccccc12 | / | -4.5

Reformatted: entries from further up
Structure: COCCOC(=O)c1c(C)oc2cc(Br)c(OCc3ccc(F)cc3)cc12
  HIV TAR-Tat = 0.42; CDC25B-CDK2 inh = 1.6

Structure: CCCCc1ccc(NC(=O)Cn2nc3nc(C)cc(C)n3c2=O)cc1
  HIV TAR-Tat = -0.56; CDC25B-CDK2 inh = /

Structure: Cc1ccc(NC(=O)N2CCn3c(C)ccc3C2C(C)C)c(Cl)c1 (configuration not stated)
  HIV TAR-Tat = 0.41; CDC25B-CDK2 inh = /

Structure: O=S1(=O)C[C@H](NCc2ccccc2Cl)[C@@H](S(=O)(=O)c2ccc(F)cc2)C1
  HIV TAR-Tat = -0.49; CDC25B-CDK2 inh = -2

Next entries follow:
Molecule | HIV TAR-Tat | CDC25B-CDK2 inh
O=C(Cn1cc2c(n1)CCCCCC2)NCCCN1CCOCC1 | -1.4 | -2.9
CC(CCc1ccco1)NC(=O)CCc1nnc2ccc(N3CCOCC3)nn12 (configuration not stated) | -1.9 | /
CN1CCc2nc(NC(=O)c3sc4ccccc4c3Cl)sc2C1 | 0.33 | /
CCOc1c(Br)cc(/C=C2/C(=O)NN(c3ccc(C)c(C)c3)C2=O)cc1OC | / | -3.4
O=C(NNC(=O)c1cccc([N+](=O)[O-])c1)c1cccc(Cl)c1 | / | -0.11
Fc1ccc(CN2CCN(c3ncnc4onc(-c5ccc(Cl)cc5)c34)CC2)cc1 | 0.96 | 2
CN1C(=O)C(O)(CC(=O)c2ccccc2O)c2ccccc21 (configuration not stated) | 0.52 | 0.71
CCCSCCCN1C(=O)c2cc3oc(C)cc3n2CC1(C)C(=O)NC1CCCCC1 (configuration not stated) | 2.6 | /
O=C(Cn1cnc2nc3c(cc2c1=O)CCCC3)Nc1ccc(F)cc1Cl | 1.1 | /
Cc1n[nH]c(C)c1S(=O)(=O)N1CCN(c2ccccc2F)CC1 | / | -0.14
COc1ccc(C2CC(c3c(-c4ccccc4)c4cc(Br)ccc4[nH]c3=O)=NO2)cc1 (configuration not stated) | / | 0.7
CC(CCc1ccco1)N(C)S(=O)(=O)c1csc(C(N)=O)c1 (configuration not stated) | 0.27 | /
CCc1ccc(C(=O)/C=C/SC(=NC#N)SC)cc1 | / | -3
Cc1ccc(C)c(Nc2c(-c3cc(C)c(C)cc3C)c(=O)c2=O)c1 | 0.43 | /
COc1ccc(C2Nc3ccccc3NC3=C2C(=O)CC(c2ccc(Cl)cc2)C3)c(OC)c1OC (configuration not stated) | / | -1.1
CC1CCC(NC(=O)c2nn(C)c3c2CS(=O)(=O)c2ccccc2-3)CC1 (configuration not stated) | -0.28 | 0.87
Cn1[nH]c(=O)cc1C(=O)N/N=C/c1ccc([N+](=O)[O-])cc1 | / | -0.81
COc1ccc(C2CC(C(F)(F)F)n3nc(C(=O)O)cc3N2)cc1 (configuration not stated) | 0.65 | -1.4
Cc1ccc(NC(=O)Nc2nc3ccc(S(C)(=O)=O)cc3s2)cc1C | 0.24 | -3.5
COC(=O)c1cc(-c2ccc(Br)cc2)no1 | 1.6 | 0.7
Cn1c(=O)oc2cc(NS(=O)(=O)c3ccc(C4CCCCC4)cc3)ccc21 | -1.1 | /
CCCNC(=O)C1CCCN(S(=O)(=O)c2c(C)noc2/C=C/c2cccs2)C1 (configuration not stated) | -1.1 | -2.1
CCn1c(=O)c(CCC(=O)O)nc2c(C)nn(-c3ccccc3)c21 | 2.3 | 0.24
O=C(CSc1nc(-c2ccco2)nc2cc(=O)[nH]n12)Nc1cccc(F)c1 | 0.94 | /
CCc1cc2c3c([nH]c2cc1S(=O)(=O)NCCc1ccco1)CCCC3=O | 0.35 | /
CCC(C)OC(=O)C1=C(C)NC(=O)CC1c1cc2c(cc1Br)OCO2 (configuration not stated) | 1.1 | -0.26
